Rce1 inh: inhibitors of yeast Ras-converting enzyme. Q03530. yeast membranes, quenched prenylated peptide cleavage fluorescence. calls only. actives 0.27% (n = 290,000);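 active means fall in fluorescence gain of 50% or more versus controls, with final raw signal at or below 3038400; inconclusive means same 50% fall but final raw signal above 3038400; inactive means fall in fluorescence gain under 50%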;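 further: plate controls were neutral control wells for no effect and wells lacking membranes for full effect; tested at 10 µM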
Yeast UUG start: yeast start codon fidelity modulation | activity score, % at 18.7 µM | actives 0.13% (n = 350,000) | S. cerevisiae UUG-firefly luciferase reporter, luminescence/redox ratio;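 active means replicate mean at a twofold rise or more, about +100% in these data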;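 further: firefly luciferase made from a UUG start codon reports start codon fidelity; reporter light over untreated wells divided by growth signal over untreated wells; some hits fall short of that in this replicate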
eIF4H FP inh: inhibitors of RNA binding by human eIF4H. Q15056. eIF4H fluorescence polarization binding assay. AID 2012. actives 0.94% (n = 290,000). inhibition, % at 35 µM;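 active means 50% or more with normal probe brightness, or confirmed in later tests; inconclusive means above 50% with abnormal brightness, or retests that disagree; inactive means below 50% or failed in later tests; about a fifth of its hits are not listed in these tables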;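 further: calls also rest on retests at 20 µM and on dose response follow-up; 0% = protein and probe with vehicle and 100% = probe without protein; strong numbers were not always called active; many hits fall short of the cut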
CSC inhib: cancer stem cell inhibition; cancer stem cell-like cells viability, luminescence; inhibition, % at 7.5 µM; actives 1.1% (n = 300,000); AID 2717;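 active means mean at 75% or more and at least half the replicates too; inconclusive means mean and replicates disagree; tested in HMLE shEcad cells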;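 further: 0% = median of negative and 100% = median of positive control wells; the first replicate is given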
MT1-MMP act inh: blocks activation of human MT1-MMP. P50281. HT1080 RFP-PRO-GFP cells, GFP/RFP ratio fluorescence, overnight; percent of plate control window, DMSO zero. GFP/RFP ratio change, % at 20 µM. actives 0.061% (n = 360,000). AID 651647;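 active means GFP/RFP ratio change of at least 30% with cell ATP level not reduced by more than half and red fluorescence within 50% of control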; further: strong numbers were not always called active
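Assay system – RFP-PRO-GFP reporter HT1080 cells · Compound dosing – single dose of 20 µM compound, 1% DMSO final · Incubation – overnight compound exposure at 37 °C · Measure – GFP/RFP fluorescence ratio · Benchmarks – DMSO wells and RFP-L50D-GFP cells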
PABP FP inh: blocks human PABP binding to poly(A) RNA; P11940; fluorescence polarization; inhibition, % at 35 µM; actives 1% (n = 290,000);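 active means 50% or more with normal probe brightness, or confirmed in later tests; inconclusive means above 50% with abnormal brightness, or retests that disagree; inactive means below 50% or failed in later tests; about a fifth of its hits are not listed in these tables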;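 further: calls also rest on retests at 20 µM and on dose response follow-up; controls were probe without protein and protein plus probe with vehicle; some compounds called inactive have numbers as strong as hits; many hits fall short of the cut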
Target sequence (P11940 whole entry, looked up): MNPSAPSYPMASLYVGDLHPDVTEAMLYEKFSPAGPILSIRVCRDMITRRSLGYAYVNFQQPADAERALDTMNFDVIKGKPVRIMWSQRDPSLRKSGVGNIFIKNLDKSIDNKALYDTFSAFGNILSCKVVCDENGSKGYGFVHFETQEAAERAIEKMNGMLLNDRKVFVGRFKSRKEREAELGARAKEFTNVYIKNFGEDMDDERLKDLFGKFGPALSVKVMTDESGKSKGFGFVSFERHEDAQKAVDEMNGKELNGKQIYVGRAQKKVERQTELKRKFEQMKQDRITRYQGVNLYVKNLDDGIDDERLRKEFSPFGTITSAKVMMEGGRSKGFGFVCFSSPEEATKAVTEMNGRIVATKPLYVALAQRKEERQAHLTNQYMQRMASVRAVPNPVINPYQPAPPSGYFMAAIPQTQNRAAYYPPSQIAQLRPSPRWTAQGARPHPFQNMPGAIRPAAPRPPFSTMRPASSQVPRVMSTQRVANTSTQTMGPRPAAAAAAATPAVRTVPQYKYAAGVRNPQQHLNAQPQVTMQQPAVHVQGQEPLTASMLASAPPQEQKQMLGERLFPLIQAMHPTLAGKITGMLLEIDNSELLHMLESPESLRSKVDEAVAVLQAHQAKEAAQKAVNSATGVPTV
HIV Env fusion: blocks HIV Env-driven cell-cell fusion | AID 651610 | actives 1.1% (n = 360,000) | HeLa-JRFL Env/CEM21 cell fusion, luciferase | inhibition, % at 12.3 µM;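 active means mean replicate inhibition score of at least 50 and every replicate individually at or above 50; inconclusive means only one of the two criteria met; inactive means mean below 50 and not all replicates reaching 50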;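 further: 0% = plate neutral controls and 100% = maraviroc near 300 nM; one replicate is shown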
eIF4H FP inh retest: further read-out of eIF4H FP inh, marked with its call; inhibition, %; compound at 20 µM; confirmation average;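 mean of two retest wells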
PABP FP inh retest: also measured in PABP FP inh; calls as there; inhibition, %; compound at 20 µM; confirmation repeats;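 mean of two retest wells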
MT1-MMP act inh RFP: second read-out of MT1-MMP act inh, no call of its own (marks repeat the call); RFP signal change, %; measured here: RFP expression control read;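 0 = vehicle wells; hits needed this value within 50% of zero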
An asterisk follows results filed as active; i = inactive; u = inconclusive; x = no result given; & = joins results of further samples; [ ] = remark or other dose.

SMILES | Rce1 inh | Yeast UUG start | eIF4H FP inh | CSC inhib | MT1-MMP act inh | MT1-MMP act inh RFP | PABP FP inh | HIV Env fusion | others
Cn1nnc2sc3c(c2c1=O)CCCC3 | i | -14 | -10 | -5 | 1 | 0 | -1 | -194
CCC(C)n1c(SCC(=O)Nc2ccc3[nH]c(=O)[nH]c3c2)nc2ccccc2c1=O (stereo unspecified) | i | -12 | x | 0 | 14 | 2 | x | 28
C=CCNC(=S)Nc1cc(Cl)ccc1OC | i | x | 11 | -3 | 1 | 4 | 0 | 18
CC1=CC2=NC(=O)CC(C)(C(=O)N(CC(=O)NC(C)(C)C)C3CCCC3)N2C=C1 (stereo unspecified) | u | -11 | 4 | -15 | 0 | 0 | 11 | -58
COc1ccccc1C(=O)NNC(=O)c1ccc(O)cc1 | x | -15 | x | x | 4 | 9 | x | 5
CC(=O)c1c(C)[nH]c(C(=O)CSc2nnc(-c3ccc(Cl)cc3)n2CC2CCCO2)c1C (stereo unspecified) | i | -14 | -2 | -14 | 6 | -4 | -6 | x
CCOCCCNC(=O)C(NC(=O)c1ccc2c(c1)OCO2)c1ccccc1 (stereo unspecified) | i | 7 | -12 | -9 | 1 | 0 | -4 | 10
O=P(c1ccccc1)(c1ccccc1)c1cc(S(=O)(=O)O)ccc1O | i | -9 | 78* | 5 | 2 | 3 | 30* | -6 | eIF4H FP inh retest=95*;PABP FP inh retest=91*
Nc1nonc1C(=O)NCCNC(=O)c1ccc(Cl)cc1 | i | -15 | -4 | -3 | 0 | -1 | 4 | -8
COc1ccc(-c2ccccc2)cc1NCc1ccc(OC)c(OC)c1 | i | x | -12 | -1 | -5 | -1 | -8 | x
COC(=O)C1=C(C)N=C2SCCC(=O)N2C1c1ccc(OC(=O)c2ccco2)cc1 (stereo unspecified) | i | x | 7 | x | 7 | 7 | 7 | x
COC(=O)c1ccccc1C(=O)N1CCCC(CNC(=O)c2ccc(F)cc2)C1 (stereo unspecified) | i | 5 | 2 | -24 | 3 | 7 | 7 | 3
CC1CCN(Cc2c(C(=O)N/N=C/c3ccc(C(C)C)cc3)nnn2-c2nonc2N)CC1 | i | -5 | 5 | 29 | -5 | -8 | -4 | 14
CCCc1nnc(NC(=O)CN2C(=O)c3ccccc3S2(=O)=O)s1 | i | -15 | 12 | 7 | 5 | 3 | 1 | -39
CC(C)(C)c1nnc2sc(SCC(=O)c3ccc4c(c3)OCCO4)nn2c1=O | i | -1 | -1 | -2 | 2 | 3 | 11 | -9
Cc1cccc([C@@H]2[C@@H]3C(=O)N(Cc4ccccc4)C(=O)[C@@H]3[C@]3(Cc4ccc(Cl)cc4)C(=O)N(c4ccccc4)C(=O)N23)c1 | i | -9 | -13 | 18 | -3 | -2 | -10 | -90
Cc1nc2ccc(Br)cn2c1C(=O)N/N=C\c1ccc(C(C)C)cc1 | i | -28 | -3 | u | -11 | -21 | -5 | -21
CCOC(=O)N1CCN(c2cc(NCCO)c([N+](=O)[O-])c3nonc23)CC1 | i | -4 | -1 | -6 | 3 | 2 | -6 | 0
CC(O)CNCc1ccccc1C(F)(F)F (stereo unspecified) | i | -25 | -8 | 19 | 3 | 8 | 1 | 3
CCS(=O)(=O)n1nc(NCc2cccc(OC)c2)nc1NCc1cccc(OC)c1 | i | 12 | -8 | -5 | -1 | -6 | 28 | x
COc1ccc(OCC(=O)Nc2cc(NC(=O)c3ccco3)ccc2OC)cc1 | i | -2 | -11 | 7 | -3 | 1 | -14 | 11
Cc1c(C(=O)C(=O)N2CCN(Cc3ccc4c(c3)OCO4)CC2)c2ccccc2n1C | i | -2 | -2 | 4 | -3 | 3 | 8 | 2
C/C(CC(=O)NCc1ccccc1)=N\NC(=O)c1cnccn1 | i | -23 | -4 | -2 | -1 | 3 | 5 | -4
O=C(CSc1nc2ccccc2o1)N/N=C/c1ccccc1 | i | 8 | -3 | 1 | 3 | 2 | -4 | -25
O=C1C2C(c3ccccc3)CC=CC2[C@H](c2ccc3ccccc3c2)N1Cc1ccccc1 (stereo partly specified) | i | -18 | -12 | 56 | 2 | -12 | -5 | 18

Quoted at random: 6 records from the list.
SMILES | Rce1 inh | Yeast UUG start | eIF4H FP inh | CSC inhib | MT1-MMP act inh | MT1-MMP act inh RFP | PABP FP inh | HIV Env fusion | others
C=CCNC(=S)Nc1cc(Cl)ccc1OC | i | x | 11 | -3 | 1 | 4 | 0 | 18
Nc1nonc1C(=O)NCCNC(=O)c1ccc(Cl)cc1 | i | -15 | -4 | -3 | 0 | -1 | 4 | -8
C/C(CC(=O)NCc1ccccc1)=N\NC(=O)c1cnccn1 | i | -23 | -4 | -2 | -1 | 3 | 5 | -4
COC(=O)c1ccccc1C(=O)N1CCCC(CNC(=O)c2ccc(F)cc2)C1 (stereo unspecified) | i | 5 | 2 | -24 | 3 | 7 | 7 | 3
CCOC(=O)N1CCN(c2cc(NCCO)c([N+](=O)[O-])c3nonc23)CC1 | i | -4 | -1 | -6 | 3 | 2 | -6 | 0
COC(=O)C1=C(C)N=C2SCCC(=O)N2C1c1ccc(OC(=O)c2ccco2)cc1 (stereo unspecified) | i | x | 7 | x | 7 | 7 | 7 | x

The listing continues:
SMILES | Rce1 inh | Yeast UUG start | eIF4H FP inh | CSC inhib | MT1-MMP act inh | MT1-MMP act inh RFP | PABP FP inh | HIV Env fusion | others
O=C(Nc1ccc(C(=O)N2CCCC2)cc1)c1ccccc1 | x | -22 | x | x | 5 | 2 | x | 12
O=C(CC(Nc1ccc(F)cc1)C(=O)O)c1ccccc1 (stereo unspecified) | i | -33 | -5 | 7 | -3 | 0 | 8 | -363
Cc1nnc(SCC(=O)NCc2ccccc2)s1 | i | -4 | -12 | 3 | 0 | 1 | -10 | x
COc1ccc(N2C(=O)CC(N3CCN(c4nc5ccccc5s4)CC3)C2=O)cc1 (stereo unspecified) | i | -3 | -1 | 3 | 2 | -6 | -2 | -38
CN(C)S(=O)(=O)c1ccc(NCC2COc3ccccc3O2)c([N+](=O)[O-])c1 (stereo unspecified) | i | -21 | -11 | 9 | -1 | -4 | 13 | -1
NC(=O)c1ccc(Nc2nnc(-c3ccc(O)cc3)c3ccccc23)cc1 | i | x | -5 | 2 | 5 | -4 | -1 | 7
COc1ccc(CNS(=O)(=O)c2cc3c4c(c2)C(C)C(=O)N4CCC3)cc1 (stereo unspecified) | i | -18 | -13 | 1 | 2 | 2 | -4 | 19
CCOC(=O)c1cnc2c(c(C)nn2C)c1Oc1ccc(OC)cc1 | i | -2 | 5 | -13 | -7 | -13 | 0 | -4
COCCCN1C(=O)/C(=C\c2cccs2)C(C(=O)OC)=C1C | i | 1 | -4 | -5 | 3 | 4 | -12 | 8
O=C(CSc1nc2ccccc2nc1N1CCOCC1)Nc1ccccc1F | i | -6 | 1 | 3 | -2 | -1 | -3 | x
CC(=O)NCCC(=O)Nc1cc(S(=O)(=O)Nc2ccc(Cl)cc2)ccc1N1CCCC1 | i | 24 | -4 | x | 1 | -7 | 21 | 0
COc1ccccc1N1CC=C(c2cccc([N+](=O)[O-])c2)NC1=O | i | x | 3 | -7 | -3 | 0 | -6 | -1
CCOC(=O)c1c(NC(=O)c2ccc(Cl)cc2)csc1C | i | x | -5 | 8 | -2 | 1 | -4 | x
Cc1ccc(C2C3=C(CCCC3=O)Nc3c2c(C)nn3-c2ccccn2)o1 (stereo unspecified) | i | x | -4 | -2 | x | x | -3 | x
Cc1ccccc1-c1cc(C(=O)N/N=C/c2cccnc2)c2ccccc2n1 | i | -7 | 10 | 10 | -5 | 2 | -5 | -5
CCOc1ccc(C2C(C(=O)c3ccco3)=C(O)C(=O)N2CCN2CCOCC2)cc1OCC (stereo unspecified) | i | -14 | 5 | 0 | 0 | 6 | 5 | 5
Cc1ccc(-c2csc3ncn(CC(=O)OC(C)C)c(=O)c23)cc1 | i | -14 | -2 | -9 | -4 | 1 | -9 | 1
CCOC(=O)c1ccc(NC(=O)CSc2nnc(COc3ccccc3OC)n2C)cc1 | i | -8 | -3 | 0 | -2 | 0 | -11 | x
CCOC(=O)C1CCN(c2ncnc3c2oc2ccccc23)CC1 | i | -16 | -2 | x | 4 | -11 | -6 | x
Nc1cnc(-c2ccccc2)nc1Cl | i | -13 | 0 | -8 | 4 | 8 | 8 | -41
CCOc1ccc(C(=O)CCC(=O)NNC(=O)c2ccncc2)cc1 | i | -17 | x | -12 | 1 | 7 | x | x
O=C(Cc1ccccc1)Nn1c(-c2ccccc2F)nc2ccccc2c1=O | i | -16 | 7 | -7 | -4 | -1 | 23 | 8
C[C@H](CO)N1C[C@H](C)[C@@H](CN(C)C(=O)Nc2ccccc2)Oc2c(NS(=O)(=O)c3ccccc3)cccc2C1=O | x | 12&21 | x | 0 | -1 | 6 | x | -35[16.7 µM]
CC[C@]12c3[nH]c4ccccc4c3CCN1C(=O)C(CC(=O)NCCCn1ccnc1)C[C@@H]2C(=O)N1CCN(C(=O)c2ccco2)CC1 (stereo partly specified) | x | -4 | x | 8 | -1 | 0 | x | 18
Cc1ccc(C)c(NC(=S)N(C)CCc2ccccn2)c1 | i | x | -2 | -4 | 2 | 1 | -6 | 3

Among those listed so far, these have a nitro group on carbon:
SMILES | Rce1 inh | Yeast UUG start | eIF4H FP inh | CSC inhib | MT1-MMP act inh | MT1-MMP act inh RFP | PABP FP inh | HIV Env fusion | others
CCOC(=O)N1CCN(c2cc(NCCO)c([N+](=O)[O-])c3nonc23)CC1 | i | -4 | -1 | -6 | 3 | 2 | -6 | 0
CN(C)S(=O)(=O)c1ccc(NCC2COc3ccccc3O2)c([N+](=O)[O-])c1 (stereo unspecified) | i | -21 | -11 | 9 | -1 | -4 | 13 | -1
COc1ccccc1N1CC=C(c2cccc([N+](=O)[O-])c2)NC1=O | i | x | 3 | -7 | -3 | 0 | -6 | -1

New compounds follow:
SMILES | Rce1 inh | Yeast UUG start | eIF4H FP inh | CSC inhib | MT1-MMP act inh | MT1-MMP act inh RFP | PABP FP inh | HIV Env fusion | others
O=c1oc(-c2ccc([N+](=O)[O-])cc2)nc2ccccc12 | i | x | -8 | -8 | 3 | 4 | u | 29
COc1cc(NC(=O)C2CCCN2S(=O)(=O)c2ccc3c(c2)CCC(=O)N3)cc(OC)c1 (stereo unspecified) | x | -4 | 3 | 0 | 0 | -2 | -2 | -2
C=CCC(=O)OCC(=O)Nc1ccc(Cl)cn1 | i | x | 3 | -10 | 4 | 5 | 11 | x
CCC(Sc1nc(=O)cc(N)n1CCc1ccccc1)C(=O)Nc1cc(C)on1 (stereo unspecified) | i | -18 | -7 | 2 | 3 | 4 | -3 | -43
COc1ccc(CN2CCC(CO)(Cc3cccc(C(F)(F)F)c3)CC2)cc1Cn1cccn1 | i | -15 | -6 | 16 | 1 | -1 | -7 | -3
CCOC(=O)c1nnn(CC(=O)N2N=C(c3ccc(Cl)cc3)CC2c2ccccc2)c1C(=O)OCC (stereo unspecified) | i | -1 | -7 | 1 | 3 | -9 | 14 | -17
CN1CCCN(Cc2ccc(Cl)cc2Cl)CC1 | i | -13 | 4 | 25 | -3 | -3 | 18 | x
CCc1ccc(-n2c(=S)sc3c(=O)n(-c4ccccc4)c(SCC(=O)O)nc32)cc1 | i | 4 | 1 | x | 3 | 1 | -6 | 12
CN(C)c1nc(Oc2ccc(=O)n(C)n2)nc(N2CCOCC2)n1 | i | -34 | -9 | -6 | 3 | 5 | 5 | x
O=C1Nc2ccc(S(=O)(=O)N3CCCC3C(=O)O)c3cccc1c23 (stereo unspecified) | i | -8 | 6 | -4 | -5 | -1 | 20 | 10
